High-throughput results from PubChem.
HPGD block = qHTS Assay for Inhibitors of HPGD (15-Hydroxyprostaglandin Dehydrogenase); 15-hydroxyprostaglandin dehydrogenase [NAD(+)] (Homo sapiens), P15428; purified HPGD, NADH fluorescence kinetic, PGE2 substrate; Potency, µM, without a hit: at the top dose activity change, negative = inhibition, hits mostly inhibitors; actives 4.3% (n = 150,000); active = well fitted inhibition curve with a large enough effect (not every such curve was filed as active); inconclusive = small, poorly fitted or top-dose-only effect, or another doubt; inactive = no such curve, though single readings can be large or run the other way;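 further: top concentration of the series not given in the record; plate controls included wells without enzyme; inactives centre near -10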
Target sequence (P15428 whole entry, looked up): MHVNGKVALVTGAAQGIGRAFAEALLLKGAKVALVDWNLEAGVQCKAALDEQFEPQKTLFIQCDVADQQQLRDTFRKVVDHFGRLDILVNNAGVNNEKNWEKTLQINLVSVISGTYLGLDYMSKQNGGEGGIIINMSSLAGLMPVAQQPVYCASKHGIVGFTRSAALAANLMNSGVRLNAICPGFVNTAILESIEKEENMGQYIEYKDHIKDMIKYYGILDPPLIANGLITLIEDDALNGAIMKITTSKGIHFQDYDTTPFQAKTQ
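NADH formation kinetics: reaction with 30 uM PGE2 and 1 mM NAD+ (final), 20 nM enzyme, Tris-HCl pH 8 with Tween 20, after 15 min compound preincubation at room temperature. Fluorescence change, last versus first of five reads.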
Starred values were filed as active, the others as inactive; ? = inconclusive; [ ] = dose if it differs, or a comment. On the % scale 0 is the no-effect control and ±100 the full control effect; potency means the concentration at half of the fitted maximal effect.

HPGD block	Structure
-9%	COc1ccc(NC(=O)C2CCCN2S(=O)(=O)c2ccc(C)cc2)cc1 (stereo not drawn)
-23%	COC(=O)c1ccccc1NC(=O)c1nc2nc(C)cc(C(F)F)n2n1
3%	Cc1ccccc1NS(=O)(=O)c1ccc(OCC(=O)NCc2cccnc2)cc1
-3%	CCOC(=O)C1=C(C)N(c2ccccc2)C(=O)NC1c1cccc([N+](=O)[O-])c1 (stereo not drawn)
-18%	CCOC(=O)N1CCC(N2C(=O)c3ccccc3C2Nc2ccc(Cl)cn2)CC1 (stereo not drawn)
-5%	O=C(COC(=O)C1(c2ccccc2F)CCCC1)N1CCN(C(=O)c2ccco2)CC1
-7%	Cc1cc(C)n(C(=O)c2ccc([N+](=O)[O-])cc2[N+](=O)[O-])n1
-5%	COc1ccccc1CNC(=O)c1ccc(CS(=O)(=O)c2ccccc2OC)o1
-6%	N#CC1=C(N)Oc2n[nH]c(-c3ccc(F)cc3)c2C1c1cccc(OC(=O)N2CCOCC2)c1 (stereo not drawn)
?	CCOC(=O)c1c(NC(=O)CN2C(=O)NC(C)(c3ccc(OC(F)F)cc3)C2=O)sc(C)c1C (stereo not drawn)
-4%	CCOC(=O)C(C)n1cnc2c(oc3ccccc32)c1=O (stereo not drawn)
-1%	Cc1c(NC(=O)CSc2nc3c(cnn3-c3ccccc3)c(=O)[nH]2)c(=O)n(-c2ccccc2)n1C
-20%	Cc1c(C(=O)O)oc2ccc(S(=O)(=O)NCc3ccc(F)cc3)cc12
-3%	Cc1ccc(CNC(=O)CO/N=C/c2ccc(C(C)(C)C)cc2)cc1
?	Cc1ncc(N=Nc2ccccc2Cl)c(-c2ccccc2)n1
-16%	O=C(OCC#CCSc1nnc(-c2ccc(Br)cc2)o1)c1cccs1
-2%	CC(C)CN1CCC2(CC1)CCN(C(=O)c1csnn1)CC2
-6%	O=P(O)(CCCP(=O)(O)CCc1ccccc1)CCc1ccccc1
1%	CN(C/C=C/C#CC(C)(C)C)Cc1cccc2ccccc12
?	COC(=O)c1[nH]c2ccc(C)cc2c1NC(=O)CN1CCCC(C)(C)C1
8%	CCOc1ccc(C2/C(=C(\O)c3cccc(OC)c3)C(=O)C(=O)N2c2cc(C)on2)cc1OC (stereo not drawn)
-6%	COc1ccc(Cn2c(-c3ccc(C)cc3)c[n+]3ccccc23)cc1
25µM*	Cc1ccc(/C=C/C(=O)N2CCN(S(=O)(=O)c3c(C)c(C)cc(C)c3C)CC2)o1
-19%	Cc1cc2oc(=O)cc(CN3CCN(C/C=C/c4ccccc4)CC3)c2cc1O
-16%	Cc1c(Br)c([N+](=O)[O-])nn1CC(=O)N1CCCc2ccccc21
-10%	O=C(CCNS(=O)(=O)c1cccc2nonc12)N1CCN(c2cccc(Cl)c2)CC1
-4%	O=C(CCN1C(=O)c2ccccc2C1=O)NC1=NCCS1
?	O=C(CNc1ccccc1)c1ccc([N+](=O)[O-])cc1
?	O=C(c1ccco1)N1CCN(C(=O)c2cnn3c(C(F)(F)F)cc(-c4cccs4)nc23)CC1
-9%	CCOC(=O)C1CCCN(C(=O)C2CCCN(S(C)(=O)=O)C2)C1 (stereo not drawn)

Shown with bars between the fields: entries from further up
SMILES | HPGD block
CCOC(=O)c1c(NC(=O)CN2C(=O)NC(C)(c3ccc(OC(F)F)cc3)C2=O)sc(C)c1C (stereo not drawn) | ?
CCOC(=O)C(C)n1cnc2c(oc3ccccc32)c1=O (stereo not drawn) | -4%
Cc1c(NC(=O)CSc2nc3c(cnn3-c3ccccc3)c(=O)[nH]2)c(=O)n(-c2ccccc2)n1C | -1%

Other entries follow:
HPGD block	Structure
-19%	COC(=O)c1sccc1NC(=O)/C=C\c1ccc(Cl)cc1Cl
-4%	COc1ccccc1CNc1n[nH]c(NCc2ccccc2OC)n1
-1%	CCC(NC(=O)c1ccccc1NC(=O)c1ccco1)C(=O)NNC(=O)c1ccc(OC)cc1 (stereo not drawn)
-7%	C/C(=N\NC(=O)COc1ccc([N+](=O)[O-])cc1)C(C)(C)C
-11%	O=C(NCC1CCCO1)c1cccc(-n2cnnn2)c1 (stereo not drawn)
-9%	COc1ccc(Sc2nnc(-c3ccccc3)cc2C#N)cc1
-20%	O=C(CSc1nnc2sc3ccccc3n12)NCc1ccco1
-10%	NS(=O)(=O)c1ccc(NC(=O)COC(=O)CCC2CCCCC2)cc1
-7%	CCOc1ccc(-n2c(=O)cc(N3CCN(c4ccccc4)CC3)[nH]c2=O)cc1
-9%	CCN(CC)CCCNC(=O)C(C)n1nc(C)c2sc3ccccc3c2c1=O (stereo not drawn)
-4%	COc1ccc(C(=O)Nc2cc(C)cc(C)c2)cc1S(=O)(=O)N1CCOCC1
-7%	CCc1ccc2[nH]c(=O)c(CN(CCN(C)C)C(=O)Nc3ccccc3OC)cc2c1
-21%	Cc1csc2ncc(C(=O)Nc3ccc(C(F)(F)F)cc3)c(=O)n12
?	O=C(Oc1cc2oc(=O)c3c(c2cc1Cl)CCCC3)c1ccco1
-13%	CC1CN(c2ncnc3c2cnn3-c2ccc(Cl)cc2)CC(C)O1 (stereo not drawn)
-11%	Clc1cccc(CSc2nccn2-c2ccccc2)c1
-18%	O=C(O)C1C2C=CC(C2)C1C(=O)Nc1ccc2c(c1)OCCO2 (stereo not drawn)
-13%	Cc1ccc(Nc2nc(CSc3nnnn3-c3ccccc3)cs2)cc1
-1%	CN(NC(=O)c1ccccc1)c1nc2ccccc2nc1C(F)(F)F
?	CCOC(=O)N1CCN(c2cc3[nH]c(=S)[nH]c3cc2F)CC1
-16%	N#Cc1c(N)nc2c(c1N)CC(COc1ccccc1)O2 (stereo not drawn)
-14%	CO/N=C/C(C#N)c1ncc(C(F)(F)F)cc1Cl (stereo not drawn)
-23%	Cc1cccc(C)c1OCC(=O)N=Nc1c(O)[nH]c2ccc(Br)cc12
-11%	CN1CCN(C(=O)C23CCC(C)(c4nc5ccccc5nc42)C3(C)C)CC1 (stereo not drawn)
-9%	O=C(NC1=NCCS1)Nc1ccccc1
-4%	Cn1c(=O)[nH]c(=O)c2c1nc(N(CCO)Cc1ccccc1)n2Cc1ccccc1Cl
-5%	COc1ccc(S(=O)(=O)N(C)CC(=O)Nc2c(F)cccc2F)cc1
?	CCN(C(=O)c1ccco1)c1nnc(-c2ccc(OC)cc2)s1
-26%	O=C(/C=C\c1ccc2c(c1)OCO2)NC1(C(=O)Nc2ccc3c(c2)OCO3)CCCCC1
-17%	CCOC(=O)C1CCN(C(=O)CCc2c(C)nc3cc(-c4ccccc4)nn3c2C)CC1

Filtered by structure, those above containing a tert-butyl group.
HPGD block	Structure
-3%	Cc1ccc(CNC(=O)CO/N=C/c2ccc(C(C)(C)C)cc2)cc1
1%	CN(C/C=C/C#CC(C)(C)C)Cc1cccc2ccccc12
-7%	C/C(=N\NC(=O)COc1ccc([N+](=O)[O-])cc1)C(C)(C)C

HPGD block: hit marks shown above
HPGD block	Structure
25µM*	Cc1ccc(/C=C/C(=O)N2CCN(S(=O)(=O)c3c(C)c(C)cc(C)c3C)CC2)o1

(further entries)
HPGD block	Structure
278%[activator]	CCOc1cc(/C=C/c2nc3cc(C)c(C)cc3s2)ccc1OCC(=O)N1CCOCC1
-15%	CCC/C=C(\CCC)C(NS(=O)(=O)c1ccc(C(F)(F)F)cc1)c1ccc(-c2ccccc2)cc1 (stereo not drawn)
?	CCOc1c2ccc(C(=O)NCc3ccc(C)cc3)cc2nn1CC
-2%	CCOC(=O)Cn1nc(C)c2ccccc2c1=O
-4%	C/C(Cn1nnc([N+](=O)[O-])n1)=N\NC(=O)c1ccc(C)cc1
-4%	COc1ccc(C(=O)N2CCC3(CC2)CCN(C(c2ccccc2)c2ccccc2)CC3)cc1
-7%	CC(C)OC(=O)NCN1C(=O)C2C3C=CC(C3)C2C1=O (stereo not drawn)
-1%	COc1ccccc1N1CCN(C2CCN(C(=O)c3ccc(F)cc3)CC2)CC1
-12%	CC1CCN(Cc2nnnn2-c2cccc([N+](=O)[O-])c2)CC1
-5%	CN1CCC(N2CCN(c3cccc(C(F)(F)F)c3)CC2)CC1
-11%	CCc1ccc(NC(=O)c2onc(C)c2Cl)cc1
4µM*	COc1cccc(/C=C2\C(=O)N(c3cccc(C)c3)C(=O)c3ccccc32)c1
-5%	Cc1csc(=O)n1CCC(=O)O
?	COc1ccc(Cn2nnnc2C(c2cc3cc(C)ccc3[nH]c2=O)N2CCOCC2)cc1 (stereo not drawn)
-30%	O=C(Nc1ccccn1)C(=O)N1CCCCC1
-4%	COc1ccc(C2C3=C(CC(C)(C)CC3=O)Oc3ncn(CC(C)C)c(=N)c32)cc1 (stereo not drawn)
-8%	Cn1c(Cn2c(=O)sc3ccccc32)nnc1SCc1cccc(F)c1
-5%	O=C1C(C=NCCN2CCOCC2)=C(O)c2ccccc21
-9%	C/C(Cn1nnc([N+](=O)[O-])n1)=N\NC(=O)c1ccc(O)cc1O
-22%	CC1(C)O[C@@H]1COc1c2ccoc2cc2oc(=O)ccc12
-22%	S=C(NCCSCc1ccc(Cl)cc1)Nc1ccccc1
-4%	CSc1cc2c(cc1C(F)(F)F)N(C(=O)Nc1cccnc1)CC2
-25%	O=C(CCCCCn1c(=O)[nH]c2ccccc2c1=O)NCCc1c[nH]c2ccccc12
-4%	Cn1c(CN2CCN(C(=O)c3ccc(F)cc3)CC2)nc2cc([N+](=O)[O-])ccc21
-18%	O=C(COC(=O)c1ccc([N+](=O)[O-])o1)Nc1cccc(S(=O)(=O)N2CCOCC2)c1
-5%	O=C(CSc1nc2ccc([N+](=O)[O-])cc2[nH]1)NCCc1ccccc1
-3%	N#Cc1ccccc1N=C1CCCN1Cc1ccccc1
-18%	CCOC(=O)CC(N)c1ccc2c(c1)OCO2 (stereo not drawn)
?	NC(=O)c1ccccc1N=Cc1ccccn1
-8%	COc1ccc([N+](=O)[O-])cc1NC(=O)Nc1ccccc1
-8%	Cc1nnc(NC(=O)c2c(F)c(F)c(F)c(F)c2F)s1
?	C=CCn1c(-c2cccnc2Cl)nc2cc(Cl)c(Cl)cc21
-6%	Cc1ccc(NC(=S)NCCN2CCOCC2)cc1C
?	Cc1ccc(CCNC(=O)C2CCN(S(=O)(=O)c3c(C)nn(C)c3C)CC2)cc1
-4%	Cn1cccc1C(=O)NC(=O)CSc1nnc(C2CC2)n1-c1ccccc1
-10%	O=C(NNS(=O)(=O)c1ccc(F)cc1)c1ccc(S(=O)(=O)N2CCCCC2)cc1
28µM*	O=C(/C=C\c1ccc(O)c(O)c1)O[C@@H](Cc1ccc(O)c(O)c1)C(=O)O
-11%	CCn1c(SCC(=O)NCCc2ccc(Cl)cc2)nnc1-c1cccs1
-12%	O=C(OCC(=O)N1CCc2ccccc21)C1=COCCO1
-3%	CCOc1ccccc1NC(=O)C(=O)NCC1CCCN1CC (stereo not drawn)
-18%	CCOC(=O)c1sc2nc(CC(=O)OC)nc(NCCN3CCOCC3)c2c1C
-3%	O=C(Nc1cccc(Cl)c1)Nc1ccc(Cl)cn1
-13%	CCOC(=O)CSc1nccc(N(C)C)c1C#N
-6%	COC(=O)c1cc(Br)c(=O)n(CCC2=CCCCC2)c1
-21%	CCn1cnc2sc(-c3ccccc3)cc2c1=O
-4%	COc1ccc(CC(=O)N2CCCc3ccccc32)cc1OC
2%	CC(=O)Nc1cc(C(F)(F)F)ccc1N1CCOCC1
?	Cn1c(C(=O)NCCCN2CCN(c3ccccc3F)CC2)cc2c(=O)n(C)c3ccccc3c21
-19%	O=C(NCc1cccc(Cl)c1)c1ccc(S(=O)(=O)Nc2cccc(C(F)(F)F)c2)cc1
-11%	CSCCC(NC(=O)COc1ccccc1)C(=O)OCC(=O)c1cc2ccccc2o1 (stereo not drawn)
-15%	Cc1ccc(CNC(=O)C2CCCN(S(=O)(=O)c3c(C)[nH]c(=O)[nH]c3=O)C2)cc1 (stereo not drawn)
-7%	O=C(CCCN1C(=O)CCC1=O)Nc1ccc(Br)cc1F
-12%	CCC(CC)C(=O)Nc1cccc(C(=O)Nc2ccc3c(c2)OCO3)c1
-7%	Cc1ccc2nc(-c3cccnc3)c(NC3CCCCC3)n2c1
-16%	COc1cccc(Oc2ccc(N)cc2)c1
-1%	O=S(=O)(Nc1cccc(C(F)(F)F)c1)c1cnc[nH]1
-2%	Cc1nn(C(=O)C(C)N2C(=O)c3ccccc3C2=O)c(C)c1Br (stereo not drawn)
-6%	O=C(C1CC2CCC1C2)N1CCN(Cc2ccc3c(c2)OCO3)CC1 (stereo not drawn)
-13%	c1ccc(CSc2snnc2-c2ccccc2)cc1
-4%	COCC(=O)Nc1ccccc1NC(C)=O

4 entries already listed, sorted by the value under HPGD block, largest number first.
compound	HPGD block
Cc1nn(C(=O)C(C)N2C(=O)c3ccccc3C2=O)c(C)c1Br (stereo not drawn)	-2%
COCC(=O)Nc1ccccc1NC(C)=O	-4%
Cc1ccc(NC(=S)NCCN2CCOCC2)cc1C	-6%
CCn1c(SCC(=O)NCCc2ccc(Cl)cc2)nnc1-c1cccs1	-11%

The listing continues:
HPGD block	Structure
?	C(=N\n1cnnc1)/c1ccc(N2CCOCC2)cc1
-8%	O=C1CC(C(=O)Nc2ccccc2)N=C(N2CCCCC2)N1 (stereo not drawn)
-26%	Cn1c(CSCc2ccccc2)nnc1SCC(=O)Nc1nccs1
-8%	COc1ccc(CN2CCSCC2)cc1C
?	Cc1ccc2nc(-c3ccccn3)oc2c1
1%	CC(C)c1ccc(C(C(=O)NC(C)(C)C)N(C(=O)CNC(=O)c2ccco2)c2cccnc2)cc1 (stereo not drawn)
-3%	COc1cc(Br)c(C(C)NC(=O)c2ccc(C)cc2)cc1OC (stereo not drawn)

The list is partial; the hit share may differ from the screen's.
